Compound activity from PubChem.
KCNQ2 block: KCNQ2 channel blockers in CHO-K1 cells – cell-based, FluxOR thallium flux, B-score, primary screen (AID 2156) | O88943 | 20 min; active compounds read low; only compounds with negative scores are shown here; some inactives read as strong as hits | B-score at 10 µM | hit rate 1.1% among 310,000;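 active = fluorescence ratio B-score at most minus 3 library SDs, with starting brightness B-score within 2 library SDs, cut at about -5.5 in these data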
Target sequence (O88943 whole entry, looked up): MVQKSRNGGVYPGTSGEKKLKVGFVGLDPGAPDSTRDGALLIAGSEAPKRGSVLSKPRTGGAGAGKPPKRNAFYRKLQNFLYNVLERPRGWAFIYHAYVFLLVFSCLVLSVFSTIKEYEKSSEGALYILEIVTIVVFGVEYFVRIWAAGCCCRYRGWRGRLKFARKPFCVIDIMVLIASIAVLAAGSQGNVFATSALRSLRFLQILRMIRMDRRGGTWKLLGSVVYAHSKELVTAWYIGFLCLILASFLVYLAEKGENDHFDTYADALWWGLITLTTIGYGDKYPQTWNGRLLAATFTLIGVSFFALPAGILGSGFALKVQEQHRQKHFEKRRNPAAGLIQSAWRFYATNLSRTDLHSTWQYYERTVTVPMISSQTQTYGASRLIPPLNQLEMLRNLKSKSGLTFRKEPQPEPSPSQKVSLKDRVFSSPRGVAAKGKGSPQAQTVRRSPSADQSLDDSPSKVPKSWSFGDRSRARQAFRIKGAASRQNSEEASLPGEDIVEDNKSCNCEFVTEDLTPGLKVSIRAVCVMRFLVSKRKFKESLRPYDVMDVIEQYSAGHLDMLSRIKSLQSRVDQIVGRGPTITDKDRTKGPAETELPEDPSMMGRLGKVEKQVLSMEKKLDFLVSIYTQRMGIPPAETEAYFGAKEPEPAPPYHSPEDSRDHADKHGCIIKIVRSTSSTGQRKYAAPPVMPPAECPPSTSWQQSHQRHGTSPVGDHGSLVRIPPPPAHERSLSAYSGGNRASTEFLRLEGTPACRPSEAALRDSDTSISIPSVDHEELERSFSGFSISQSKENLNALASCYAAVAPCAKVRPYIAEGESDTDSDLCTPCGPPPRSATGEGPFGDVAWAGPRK
KCNQ2 block baseline: second read-out of KCNQ2 block, no call of its own (marks repeat the call); B-score; measured here: initial fluorescence intensity artifact check;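 brightness before thallium and not channel activity; 0 = typical well and far values either way flag optical interference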
* hit, by the source's call; i = inactive. Only part of the results is shown; rates above refer to the full screens.

KCNQ2 block	KCNQ2 block baseline	canonical_smiles
i	-0.62	COC(=O)/C(=C\c1cc(OC)c(OC)c(OC)c1)c1nc2ccccc2[nH]1
i	-1.4	CC(C)OCCCNC(=O)Cn1ccc2cc(S(=O)(=O)N3CCCCC3)ccc21
i	-1.3	CCc1c(O)nc(SCC(=O)Nc2ccc(C)cc2)n(C2CCCCC2)c1=O
i	0.74	COc1ccc(CN(C)C(=O)c2ccccc2Sc2ccccc2C#N)cc1OC
i	0.17	COc1ccc(Cl)cc1NC(=S)NCCSc1ccc(C)cc1
i	0.03	O=C(CSc1nc2ccccc2o1)NC(=O)NCc1ccccc1
i	-1.1	Cc1csc(C(=O)O)c1-c1c(C)csc1C(=O)O
i	2.4	Cc1cccc(NCC(O)Cn2cnc3c2c(=O)n(C)c(=O)n3C)c1 (configuration not stated)
i	0.25	Cc1cc(C)c(NC(=O)CS(=O)CC(=O)NC2CCCc3ccccc32)c(C)c1 (configuration not stated)
i	2.5	CCCN(CC(=O)Nc1ccccc1C)C(=O)c1ccc(S(=O)(=O)N2CCCC2)cc1
i	-0.01	COCc1cc(C)nc(Nc2cc(C)ccc2C)c1C#N
i	-0.85	COc1ccc(Cn2nnnc2C(C(C)C)N2CCN(c3ccccc3OC)CC2)cc1 (configuration not stated)
i	0.61	C#C[C@]1(O)CC[C@H]2[C@@H]3CCc4cc(OC)ccc4[C@H]3CC[C@@]21C
i	-0.95	Cc1cc(C)c(NC(=O)C2CCN(C(=O)c3ccco3)CC2)c(C)c1
i	-1.7	CC(=O)Nc1sc2c(c1C(c1ccccc1)N1CCOCC1)CCCC2 (configuration not stated)
i	-1.9	Cc1nc2cc(NS(=O)(=O)c3cccc(F)c3)ccc2s1
i	-0.69	O=C1CC(Nc2ccccc2)C(=O)N1Cc1ccccc1 (configuration not stated)
i	-0.27	COC(=O)c1ccc(CN2C(=O)c3ccccc3C2=O)o1
i	-1.2	CC(C)(C)OC(=O)CNC(=O)c1[nH]cnc1C(=O)N[C@@H](Cc1ccccc1)C(=O)OCc1ccccc1
i	-1.5	COc1cccc(N2CCN(CC(=O)Nc3nnc(-c4ccccc4)s3)CC2)c1
i	1.6	COc1ccc(N(CC(O)Cn2nnc3ccccc32)S(=O)(=O)c2ccc(C)cc2)cc1 (configuration not stated)
i	5.2	N/C(=N\OC(=O)c1csnn1)c1ccc(C(F)(F)F)cc1
i	1.6	CCCCCC[n+]1c(-c2ccc(Cl)cc2Cl)csc1Nc1ccccc1
i	0.08	C=CCn1c(SCc2ccc(C(=O)Nc3nccs3)cc2)nnc1-c1ccc(C)c(Cl)c1
i	0.87	CCOc1ccccc1-n1nnnc1SCC(=O)Nc1cc(C)on1
i	-0.85	COCCN(C(=O)c1csnn1)C(C(=O)NC1CCCCC1)c1ccc(C)cc1 (configuration not stated)
i	-0.3	CC1CCc2c(sc3ncnc(NCc4cccnc4)c23)C1 (configuration not stated)
i	0.09	C/C(=N\NC(=O)NC1CCCCC1)c1ccc(OC(F)F)cc1OC(F)F
i	-0.96	CC(=O)CCc1oc2ccc(C)cc2c1-c1ccc(C)o1
i	1.2	CCN(CC)c1ccc(/C=N/NC(=O)c2ccc(Br)o2)cc1
i	-0.39	CCOC(=O)C1(Cc2cccc(OC)c2)CCN(CC=C(C)C)CC1
i	0.26	CCn1c2ccccc2c2nnc(SCc3ccc(C(=O)OC)o3)nc21
i	-2.8	CN=C1SC(CC(=O)Nc2ccc(N3CCOCC3)cc2)C(=O)N1C (configuration not stated)
i	-0.63	O=C(CCC(=O)c1cccs1)Nc1ccc(F)c(F)c1F
i	-1.6	COC(=O)c1sccc1S(=O)(=O)NC(C)c1cnn(-c2ccc(OC)cc2)c1C (configuration not stated)
i	-0.52	CCOc1ccc(N(CC)C(=O)c2nn(-c3ccc(OC)cc3)c(=O)c3c2c2ccccc2n3C)cc1
i	1.3	O=C(CCc1nnc(C2(c3ccc(Cl)cc3)CCC2)o1)NC1CC1
i	-0.09	Cc1cc(C)nc(NC(=O)c2ccc(COc3ccccc3Cl)cc2)c1
i	-0.73	O=C(CCc1nnc(COc2ccccc2)o1)NCCc1cccs1
i	2.4	Cn1c(CNC(=O)CCNC(=O)c2ccccc2F)cc(=O)n(C)c1=O
i	2.5	NS(=O)(=O)c1ccc(CCNC(=O)c2cc([N+](=O)[O-])ccc2N2CCCCC2)cc1
i	1.1	COc1cc2c(C(=O)N3CCOCC3)c(CSc3ccccc3)n(C)c2cc1Br
i	0.04	CSc1cccc(N2C(=O)C3CCCN3C2=S)c1 (configuration not stated)
i	1.1	C#CCOCCOCCOCCNc1nc(N2CCOCC2)nc(N2CCN(C(=O)[C@H]([C@@H](C)CC)n3cc([C@@H](N)Cc4ccc(O)cc4)nn3)CC2)n1
i	0.39	CS(=O)(=O)c1ccc(-c2nnc(NC(=O)c3ccc(S(=O)(=O)N4CCCC4)cc3)o2)cc1
i	-0.84	O=C(Nc1ccccc1Cl)Oc1ccc2ccccc2c1
i	0.89	CSc1ncc(Cl)c(C(=O)Nc2ccc(S(=O)(=O)Nc3nccc(C)n3)cc2)n1
i	0.14	CC(C)(C)OC(=O)NCCCC[C@H](NC(=O)c1nc[nH]c1C(=O)N1CCN(C(=O)OC(C)(C)C)CC1)C(=O)OC(C)(C)C
i	2	COc1cccc(/C=N/NC(=O)CC2C(=O)NN=C2C)c1O (configuration not stated)
i	2.6	CN(CC(=O)Nc1c(Cl)cccc1Cl)C(=O)C1CSC2(C)CCC(=O)N12 (configuration not stated)

Further entries:
KCNQ2 block	KCNQ2 block baseline	canonical_smiles
i	0.16	CCc1sc(C(=O)Nc2ccc(NC(C)=O)cc2)cc1C
-8.9*	-0.75*	Cc1cc(C(c2ccc(C)o2)c2ccc(C)o2)c(O)c([N+](=O)[O-])c1
i	3.1	CCOC(=O)N1CCC(NC(=O)C2CCN(C(=O)N3CC(C)Oc4ccccc43)CC2)CC1 (configuration not stated)
i	0.91	COc1ccccc1NC(=O)C(=O)NNS(=O)(=O)c1ccc2ccccc2c1
i	-0.81	COc1cccc(NC(=O)C(c2ccccc2)N2CCCC2)c1 (configuration not stated)
i	0.06	O=C(NCCc1ccccc1)C(=O)Nc1ccc2c(c1)OCCO2
i	-0.88	O=C(NCCCN1CCCC1=O)c1cccc(N2CCCC2=O)c1
i	1.5	Cc1sc2ncnc(SCC(=O)N(C)C3CCS(=O)(=O)C3)c2c1C (configuration not stated)
i	-0.38	Cc1ccc2c(c1)N(C(C)C(=O)NCc1ccccn1)C(=O)CO2 (configuration not stated)
i	0.11	Cc1cccc(CCNC(=O)CCS(=O)(=O)c2ccc3nc(C)sc3c2)c1
i	-1.2	CCOC(=O)c1ccc(N/C(=N\S(=O)(=O)c2ccc(F)cc2F)c2ccccc2)cc1
i	0.7	CC(C)CC(C(=O)OCC(=O)c1c(N)n(C)c(=O)n(C)c1=O)N1C(=O)C2CC=CCC2C1=O (configuration not stated)
i	-0.36	c1ccc2nc(SCc3cn4ccccc4n3)cnc2c1
i	0.52	COC(=O)c1c(NC(NC(=O)C(C)(C)C)C(Cl)(Cl)Cl)sc2c1CCC2 (configuration not stated)
i	-1.3	CC(=O)Nc1sc2c(c1C#N)CCC2
i	-1	CC(OC(=O)C1=Cc2ccccc2OC1)C(=O)NCc1ccco1 (configuration not stated)
i	0.21	CCCCc1c(C)c(C#N)c2[nH]c3ccccc3n2c1=O
i	0.03	Cc1c(=O)n(OCc2ccccc2)c2ccccc2[n+]1[O-]
i	-0.58	Cc1cccc(OCC(=O)NC(C)C(=O)N/N=C/c2c(OCc3ccccc3)ccc3ccccc23)c1 (configuration not stated)
i	0.46	O=C(NCCc1cccnc1)C1CCC(=O)N(Cc2cccc(C(F)(F)F)c2)C1 (configuration not stated)
i	-1.6	Cc1ccc(N/N=C(\C#N)C(=O)c2ccsc2)cc1
-6*	-0.04*	Cc1ccc(NS(=O)(=O)c2ccccc2Cl)c2c1CC(C)(C)O2
i	1.5	CN(Cc1ccccc1)C(=O)C1CCCN1S(=O)(=O)c1ccc2c(c1)n(C)c(=O)c(=O)n2C (configuration not stated)
i	-0.64	CCn1c(C)cc(/C=C2\NC(=O)N(CC(=O)Nc3cccc(C)c3)C2=O)c1C
i	2.3	O=C(c1cc2sccc2n1Cc1ccc(F)cc1)N1CCN(c2nc3ccccc3s2)CC1

17 of these compounds in another layout:
Values run as follows: KCNQ2 block	KCNQ2 block baseline
- CCc1sc(C(=O)Nc2ccc(NC(C)=O)cc2)cc1C
 : i	0.16
- Cc1cc(C(c2ccc(C)o2)c2ccc(C)o2)c(O)c([N+](=O)[O-])c1
 : -8.9*	-0.75*
- CCOC(=O)N1CCC(NC(=O)C2CCN(C(=O)N3CC(C)Oc4ccccc43)CC2)CC1 (configuration not stated)
 : i	3.1
- COc1ccccc1NC(=O)C(=O)NNS(=O)(=O)c1ccc2ccccc2c1
 : i	0.91
- COc1cccc(NC(=O)C(c2ccccc2)N2CCCC2)c1 (configuration not stated)
 : i	-0.81
- O=C(NCCc1ccccc1)C(=O)Nc1ccc2c(c1)OCCO2
 : i	0.06
- O=C(NCCCN1CCCC1=O)c1cccc(N2CCCC2=O)c1
 : i	-0.88
- Cc1sc2ncnc(SCC(=O)N(C)C3CCS(=O)(=O)C3)c2c1C (configuration not stated)
 : i	1.5
- Cc1ccc2c(c1)N(C(C)C(=O)NCc1ccccn1)C(=O)CO2 (configuration not stated)
 : i	-0.38
- Cc1cccc(CCNC(=O)CCS(=O)(=O)c2ccc3nc(C)sc3c2)c1
 : i	0.11
- CCOC(=O)c1ccc(N/C(=N\S(=O)(=O)c2ccc(F)cc2F)c2ccccc2)cc1
 : i	-1.2
- CC(C)CC(C(=O)OCC(=O)c1c(N)n(C)c(=O)n(C)c1=O)N1C(=O)C2CC=CCC2C1=O (configuration not stated)
 : i	0.7
- c1ccc2nc(SCc3cn4ccccc4n3)cnc2c1
 : i	-0.36
- COC(=O)c1c(NC(NC(=O)C(C)(C)C)C(Cl)(Cl)Cl)sc2c1CCC2 (configuration not stated)
 : i	0.52
- CC(=O)Nc1sc2c(c1C#N)CCC2
 : i	-1.3
- CC(OC(=O)C1=Cc2ccccc2OC1)C(=O)NCc1ccco1 (configuration not stated)
 : i	-1
- CCCCc1c(C)c(C#N)c2[nH]c3ccccc3n2c1=O
 : i	0.21

(further entries)
KCNQ2 block	KCNQ2 block baseline	canonical_smiles
i	-0.17	NS(=O)(=O)c1ccc(N=Nc2c(O)[nH]c3ccc(Br)cc23)cc1
i	-0.15	CCCCN(C)CCCNC(=O)C1CC(=O)N(Cc2ccc(OC)cc2)C1 (configuration not stated)
i	-1.2	Cc1cccc(OCC(=O)NNC(=O)C2CCN(c3ncnc4sc(C)c(C)c34)CC2)c1
i	0.18	Cc1nnc2n(c1=O)C(CS(=O)(=O)c1ccc3ccccc3c1)CS2 (configuration not stated)
i	2.2	COCCNC(=O)Cn1nc(C(F)(F)F)c(Cl)c1C
i	0.55	CCCS(=O)(=O)N1CCCC(C(=O)NCc2ccc3c(c2)OCO3)C1 (configuration not stated)
i	-0.1	COC(=O)C(NC(C)=O)(Nc1ccccc1)C(=O)OC
i	0.38	COCCn1c(=NC(=O)CCS(=O)(=O)c2ccccc2)sc2ccccc21
i	-0.89	CN(C)c1cccc(C(=O)Nc2nc3ccccc3[nH]2)c1
i	-0.89	CCOCCCNC(=O)COC(=O)/C=C/c1ccc(S(=O)(=O)N2CCc3ccccc32)cc1
i	-2.4	O=C(c1ccccc1Cc1ccccc1)N1CCN(S(=O)(=O)c2ccc(F)cc2)CC1
i	0.58	CCOc1ccccc1NC(=O)CSc1nc2c(c(=O)n(C)c(=O)n2C)n1C
i	-1.4	Cc1cccc(C)c1OCC(=O)Nc1oc(-c2ccccc2)c(-c2ccccc2)c1C#N
i	-0.67	Cc1ccc(-c2nc(-c3ccccn3)sc2CC(=O)O)cc1
i	-0.01	CCOP(=O)(OCC)C(C#N)=C1SCN(c2ccc(Cl)cc2)CS1
i	-1.9	COC(=O)c1c(NC(=O)COC(=O)c2ccc(Cl)cc2[N+](=O)[O-])sc2c1CCCCC2
i	2.9	CC(C)[C@H](NC(=O)c1ccco1)C(=O)OCc1cc(=O)n2c(n1)sc1ccccc12
i	2.7	CNS(=O)(=O)c1cc(S(=O)(=O)NC)c2cccc3c2c1NC3=O
i	0.39	CN(CC(=O)Nc1ccc(F)c(F)c1F)C(=O)C1CCC1
i	0.07	Fc1ccccc1COc1cccc2cccnc12
i	0.67	COc1ccc(-c2nc3cc(C)ccn3c2NC(=O)c2c(F)cccc2Cl)cc1
i	-0.88	CC1CCCCN1C(=O)c1cc(-c2ccc3c(c2)OCO3)on1 (configuration not stated)
i	-0.6	Cc1ccccc1S(=O)(=O)Cc1ccc(C(=O)NCCCOC(C)C)o1
i	-1.8	Cc1cc(/C=N/NC(=O)c2cc3ccccc3o2)c(C)n1C
i	4.1	COC(=O)c1ccccc1Oc1nc(Cl)cc(OC)n1
i	-0.21	CN(CC(=O)Nc1cccc(F)c1)C(=O)CN1C(=O)C2CC=CCC2C1=O (configuration not stated)
i	0.95	Cc1c(CCO)c(=O)n(-c2ccccc2)n1S(=O)(=O)c1ccc(Cl)cc1
i	-1.2	CCO/C=C/C(O)(CNC(=O)c1ccc(C(C)(C)C)cc1)C(F)(F)F (configuration not stated)
i	0.04	O=C(NCCCCNC(=O)c1ccccc1Cl)c1ccccc1Cl
i	-3.7	CC(=O)c1c(N2CCOCC2)nc(=S)n(-c2cc(C)ccc2C)c1C
i	-0.03	C=CCN(CC=C)C(=O)Nc1cc(Cl)ccc1OC
i	2.3	CCC(Sc1nc2ccccc2o1)C(=O)Nc1nnc(C)s1 (configuration not stated)
i	1.9	O=C(NC1CCCCC1)C(c1ccco1)N(Cc1cccnc1)C(=O)C1COc2ccccc2O1 (configuration not stated)
i	-1.6	O=C1C(Cc2ccccc2)Nc2ncnc(N3CCN(c4ccccc4)CC3)c2N1Cc1ccccc1 (configuration not stated)
i	-0.68	Cc1cc(Cl)c2oc(C(=O)N3CCN(C4CCS(=O)(=O)C4)CC3)c(C)c2c1 (configuration not stated)
i	-0.59	COc1cc2c(cc1NC(=O)COC(=O)Cn1cnc3ccccc31)oc1ccccc12
i	1.6	Cc1ccc(C)c(N2CCN(CCCNC(=O)CCC(=O)N3CCOc4ccc(Cl)cc43)CC2)c1
